Screening results deposited in PubChem BioAssay by ICCB-Longwood Screening Facility, Harvard Medical School.
AID504770: E. coli YBA685 growth inhibition, screen for V. cholerae RctB inhibitors. E. coli YBA685 rctB-dependent plasmid, OD600 growth, 3 h; stronger effect = lower value. z-score (concentration not given with the values). 0.27% of 130,000 active. AID 504770;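 active means z-score under -2 on both plates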;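 further: wells of about 30 µL received 100 nL stock; score is relative to mean and SD of the test wells; the first replicate is given; strong numbers were not always called active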
CapD inh: CapD enzyme inhibition | purified CapD enzyme, fluorescence intensity read-out; stronger effect = lower value; some hits fall short of the stated cut | z-score (no concentration beside the values) | 0.23% of 140,000 active | AID 492967;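 active means z-score under -4 in either of two replicates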;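 further: stock transfer was 100 nL into about 40 µL; score is relative to mean and spread of the plate; one replicate is shown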
An asterisk follows results filed as active; · = not tested or not shown. Outcome played no part in choosing rows; any-hit rate near 0.37%.

SMILES	AID504770	CapD inh
CC(C)CC(NC(=O)c1ccc(C#CC(C)(C)O)s1)C(=O)O (configuration not stated)	3.6	-1.1
Cc1ccc(NC(=O)Cn2ccccc2=O)cc1	0.2	·
O=C(NC1CC2CCCC(C1)N2C(=O)NCc1ccccc1)C1CC1 (configuration not stated)	-0.2	·
c1ccc(-c2csc(Nc3nc(NCc4ccco4)nc(N4CCCCC4)n3)n2)cc1	-0.4	0.24
CSc1nc(-c2ccccc2)ccc1C#N	-0.75	27
O=C(O)c1oc2ccccc2c1CSC1=NCCS1	-0.1	·
NS(=O)(=O)c1ccc(NC(=O)CSc2ccccn2)cc1	-0.35	-0.49
Cc1nc2ccc(NC(=O)c3ccc(C#N)cc3)cc2s1	·	-0.045
O=C(CN1C(=O)c2ccccc2C1=O)OC(C(=O)NC1CCCC1)c1ccncc1 (configuration not stated)	2.6	·
Cc1ccc2oc(=O)c3cc(C(=O)N(Cc4ccco4)C4CCCCC4)sc3c2c1	-0.75	0.61
COc1ccc(CNS(=O)(=O)c2ccc(Cl)cc2)cc1OC	·	-1
O=C(OCC(=O)N(Cc1ccccc1)C1CCS(=O)(=O)C1)c1cc2c(s1)CCC2 (configuration not stated)	-0.55	·
O=C(Nc1ccc(F)cc1F)N1CCCN(Cc2ccccc2)CC1	·	-0.075
COc1ccc(C2=NN(CCC(=O)NCCCN3CCN(c4ccccc4F)CC3)C(=O)CC2)cc1	0.5	-0.74
Cn1c(CO)cnc1S(=O)(=O)Cc1c(Cl)cccc1Cl	-0.3	0.21
CSc1nnc(SC)n1CCNC(=O)OCC1(c2ccc(Cl)cc2)CC1	·	0.69
O=C(NCc1ccco1)c1ccccc1OC(F)F	0.5	·
C/C=C/C(=O)Nc1nc2ccc(OC)cc2s1	-0.05	·
Clc1cccc(-n2nnnc2C2(N3CCCCC3)CCCCC2)c1	·	-0.28
COc1cccc(CC(=O)Nn2c(-c3ccc(Br)cc3)nc3ccccc3c2=O)c1	·	-0.32
FC(F)(F)c1cccc(-n2nnnc2-c2ccccc2)c1	-0.35	·
c1csc(N2CCCC2)n1	1.4	·
CSCCC(N)C(=O)NC(CC(C)C)C(=O)NC(Cc1ccccc1)C(=O)O (configuration not stated)	·	29
NC(=O)Cn1cnc2c(nnn2-c2ccc(OC(F)(F)F)cc2)c1=O	-0.25	·
O=C(Nc1cccc(Cn2cccn2)c1)c1csc2ccccc12	0.25	0.23

Reprinted from the part before: 4 compounds; new compounds follow.
SMILES	AID504770	CapD inh
c1csc(N2CCCC2)n1	1.4	·
CSCCC(N)C(=O)NC(CC(C)C)C(=O)NC(Cc1ccccc1)C(=O)O (configuration not stated)	·	29
NC(=O)Cn1cnc2c(nnn2-c2ccc(OC(F)(F)F)cc2)c1=O	-0.25	·
O=C(Nc1cccc(Cn2cccn2)c1)c1csc2ccccc12	0.25	0.23
Cc1occc1C(=O)NC1CCN(C)CC1	1.4	-0.17
CCCc1nc2ccccc2c(N)c1CC	0.35	·
O=C(NCCSc1c[nH]c2ccccc12)C1CCCC1	-0.45	0.35
O=c1cc(CSc2nc(NC3CCCCC3)c3ccccc3n2)nc2ccccn12	·	0.88
COc1ccc(C2CC(C(F)(F)F)n3nc(C(=O)N4CCN(c5ccc(F)cc5)CC4)c(Cl)c3N2)cc1OC (configuration not stated)	·	-0.5
COC(=O)N/N=C/C1CCCCC1	1.2	·
Cc1cc(Nc2ccc(C(=O)Nc3ccc4c(c3)OCO4)cc2)n2ncnc2n1	0.7	-0.42
O=C(O)C1Nc2c(I)cccc2C2C=CCC12 (configuration not stated)	-0.7	-8.1*
CNS(=O)(=O)c1cccc2nsnc12	-0.25	-1.4
Cc1cccc(NC(=O)c2nnn(-c3cccc(C(F)(F)F)c3)c2N)c1	-0.25	-0.58
CC(=Nc1ccccc1Br)c1sc2ccccc2c1O	·	0.13
NC(=O)c1c(NC(=O)/C=C/c2cccs2)sc2c1CCCC2	-0.15	-2.2
O=C(C1COc2cc(S(=O)(=O)NCCc3ccccc3)ccc2O1)N1CCCCC1 (configuration not stated)	-1	-0.55
CC(Sc1cccc[n+]1[O-])C(=O)Nc1cccc(Cl)c1 (configuration not stated)	-0.45	-1
Clc1ccsc1-c1ccn[nH]1	-0.1	-0.55
CCn1cc(C(=O)Nc2ccc(C(F)(F)F)cc2)c(=O)c2cc(Cl)ccc21	0	-0.21
COc1ccc(CCNC(=O)CSc2nc(NCC3CCCO3)c3ccccc3n2)cc1OC (configuration not stated)	·	-0.14
COc1cc(-c2nc(NCc3ccccc3)c3ccccc3n2)cc(OC)c1OC	·	23
c1ccc(-c2nnc(SCCC3OCCCO3)o2)cc1	0.2	0.62
CC1=C(C#N)C(c2cnc(C)[nH]2)C2=C(CCCC2=O)N1 (configuration not stated)	-0.4	76
CCCNC(=O)Nc1cc(C)on1	0.95	·
Cc1cc(Cl)ccc1OCC(=O)N/N=C/c1cccc([N+](=O)[O-])c1	·	-0.94
O=C(NCc1ccco1)c1ccc(COCC(F)(F)C(F)F)cc1	-0.35	·
Cc1cc(-n2c(SCC(=O)NCc3cccc(Cl)c3)nc3n[nH]c(C)c3c2=N)ccc1Cl	·	0.74
c1ccc(NC2=NCCCCC2)cc1	-0.55	1.3
SMILES	AID504770	CapD inh
COc1cccc(OC)c1OCCOc1ccccc1C	-0.35	0.03
O=c1c2ccccc2nc(-c2ccccc2)n1/N=C/c1ccccc1O	0.15	-1.7
CCOc1ccc(-n2ccnc2SCC(=O)Nc2ccc(Cl)cc2)cc1	-0.05	-0.28
CC1(c2ccccc2NC(=O)c2cccs2)CC1	-0.8	-0.65
N/C(=N\O)c1cccc(COc2ccc(Cl)cc2)c1	·	-0.41
O=C(NCc1ccccc1)c1cc(Cl)c(=O)n(Cc2ccccc2)c1	·	1.5
Cc1cc(-c2ccccc2)nc2cc(C(N)=O)nn12	-0.55	·
COc1ccc(S(=O)(=O)N(CCC#N)CC2CCCO2)cc1OC (configuration not stated)	·	0.26
COc1cc(CCc2nnc(-c3cccs3)o2)cc(OC)c1OC	-0.5	-0.07
CN(C)c1cc(C(F)(F)F)nc2cc(C(C)(C)C)nn12	0	70
C/C(=C\C1=NC(C)(C)Cc2ccccc21)NO	·	-0.28
CCCn1c(NC)nc2c1c(=O)n(C)c(=O)n2C	-1	-0.82
O=C(NCCCn1ccnc1)C1CCN(c2ccc(C(F)(F)F)cn2)CC1	·	8.7
Cc1nn(C)c(C)c1CN(C)C(=O)c1cnn2c1NC(c1ccccc1)CC2C(F)(F)F (configuration not stated)	-0.9	-0.15
CCS(=O)(=O)Nc1cccc(C(=O)CC2(O)C(=O)Nc3ccc(Br)cc32)c1 (configuration not stated)	0.4	·
CC(=O)c1ccc(N2CCN(C(=O)OCc3ccccc3-c3ccccc3)CC2)cc1	·	9.5
O=C1NC(=S)S/C1=C\c1ccc(-c2ccc(S(=O)(=O)N3CCOCC3)cc2)o1	-0.1	·
Cc1noc(C)c1S(=O)(=O)N(C)CC(=O)Nc1ccc(F)cc1	0.3	0.38
COC(=O)c1ccccc1NC(=O)Cn1ncc2c3ccccc3n(Cc3ccccc3)c2c1=O	0.5	3.3
C#CC(CCN1CCCCC1)(OC)c1ccccc1 (configuration not stated)	0.35	·
O=C(c1ccco1)N1CCN(C(=O)c2ccc(CS(=O)c3ccc(Br)cc3)o2)CC1 (configuration not stated)	-0.1	-0.35
CC(=O)Nc1ccc(C(=O)NCc2ccc(C)c(Cl)c2)cc1NC(C)=O	·	-0.16
Cc1ccc(NC(=O)Cc2nc(CSc3nnc(-c4ccc5c(c4)OCO5)o3)cs2)cc1	-3.2	·
O=C(Nc1c(F)cccc1F)C(F)(F)F	·	0.14
CC(C)(C)C(=O)C(Cc1c(F)cccc1Cl)C(=O)C(C)(C)C	0.05	0.23

Single entries from the results shown:
`COc1ccc(S(=O)(=O)N(CCC#N)CC2CCCO2)cc1OC` (configuration not stated) in CapD inh reads 0.26
`Cc1noc(C)c1S(=O)(=O)N(C)CC(=O)Nc1ccc(F)cc1` in AID504770 reads 0.3
`Cc1ccc(NC(=O)Cc2nc(CSc3nnc(-c4ccc5c(c4)OCO5)o3)cs2)cc1` in AID504770 reads -3.2
`O=C(Nc1c(F)cccc1F)C(F)(F)F` in CapD inh reads 0.14
`COC(=O)c1ccccc1NC(=O)Cn1ncc2c3ccccc3n(Cc3ccccc3)c2c1=O` in CapD inh reads 3.3

Next part
SMILES	AID504770	CapD inh
CCOC(=O)Cn1c(C)c(CC(Cl)(Cl)Cl)c2c1CC(C)(C)CC2=O	·	-0.31
CN1CCC2(CC1)CC(=O)c1ccccc1O2	-0.6	·
O=C(O/N=C/c1c(-c2ccccc2)nc2sccn12)c1ccc(Cl)cc1	·	-0.4
CCOC(=O)C1CCN(S(=O)(=O)c2ccc(N3C(=O)CC4(CCCC4)C3=O)c(Cl)c2)CC1	-0.3	-0.32
CC1=C(C(=O)OCc2ccccc2)C(c2ccc(C(F)(F)F)cc2)C(C#N)=C(N)O1 (configuration not stated)	·	-0.49
Cc1cccc(NC2=C(n3nnc4ccccc43)C(=O)c3ccccc3C2=O)c1	-0.35	1
Cc1ccccc1NC1=NCC(C)S1 (configuration not stated)	·	-0.38
COc1ccc(OC)c(CNC(=O)c2ccccc2-c2ccccc2)c1	·	0.27
Cc1n[nH]c(C)c1-c1ccccc1O	1	0.07
COc1ccc2c(c1)CCc1sc(/N=C/N(C)C)nc1-2	·	-1
CS(=O)(=O)c1nc2ccccc2n1CC(=O)N1CCCC1	-0.3	·
COCCn1c(C)cc(C2=NNC(=NCc3ccc(OC)cc3)SC2)c1C	0.05	·
CC1CCN(C(=O)NC(C(F)(F)F)C(F)(F)F)CC1	0.2	3.3
COC(=O)C1=C(N)N(c2ccc(S(N)(=O)=O)cc2)C2=C(C(=O)CC(C)(C)C2)C1c1ccc(OC)cc1 (configuration not stated)	·	0.23
COc1ccc(C2N=C(c3ccc(Cl)cc3)SC(c3ccc(Cl)cc3)=N2)cc1OC	·	1.2
CCOC(=O)CON1C(=O)C2C3c4ccccc4C(c4ccccc43)C2C1=O (configuration not stated)	·	-0.78
CCOC(=O)Cc1c(-c2ccccc2)c2cc(Cl)ccc2[nH]c1=O	-0.25	-0.48
O=C1CCN(Cc2ccccc2)C(=O)N1	-0.3	0.18
O=C1CC(=O)N(CCC2=CCCCC2)C(=O)N1	-0.05	0.39
CCN(Cc1ccccc1)S(=O)(=O)c1c[nH]c(C(=O)OC)c1	0.8	0.05
CN(C)CCCNC(=O)/C=C/c1ccc(OCc2c(F)cccc2Cl)cc1	·	-0.3
COc1cccc(-n2c(=S)sc3c2nc(SC)n2c4ccccc4nc32)c1	·	-0.29
CCN1C(=O)C(=Cc2ccc(N3CCOCC3)cc2OC)C(=O)N(CC)C1=S	1.1	0.085
CC(/C=N/n1c(COc2ccccc2)n[nH]c1=S)=C\c1ccco1	-0.15	-2.8
Cc1oc2c(cc(NS(=O)(=O)c3ccc4c5c(cccc35)C(=O)N4)c3ccccc32)c1C(=O)OC(C)C	·	0.18

Compounds above containing an NH in an aromatic ring, in the order listed:
SMILES	AID504770	CapD inh
O=C(NCCSc1c[nH]c2ccccc12)C1CCCC1	-0.45	0.35
Clc1ccsc1-c1ccn[nH]1	-0.1	-0.55
CC1=C(C#N)C(c2cnc(C)[nH]2)C2=C(CCCC2=O)N1 (configuration not stated)	-0.4	76
Cc1cc(-n2c(SCC(=O)NCc3cccc(Cl)c3)nc3n[nH]c(C)c3c2=N)ccc1Cl	·	0.74
Cc1n[nH]c(C)c1-c1ccccc1O	1	0.07
CCOC(=O)Cc1c(-c2ccccc2)c2cc(Cl)ccc2[nH]c1=O	-0.25	-0.48
CCN(Cc1ccccc1)S(=O)(=O)c1c[nH]c(C(=O)OC)c1	0.8	0.05
CC(/C=N/n1c(COc2ccccc2)n[nH]c1=S)=C\c1ccco1	-0.15	-2.8

Continuation.
SMILES	AID504770	CapD inh
FC(F)(F)c1cnc(-c2cnc(-c3cccnc3)nc2)c(Cl)c1	-0.65	-0.37
OC(CSc1ccc(F)cc1)CN1CCN(c2ccc(F)cc2)CC1 (configuration not stated)	·	-0.02
Cc1ccccc1COC(=O)CCC1=NS(=O)(=O)c2ccccc2N1	-0.55	-0.01
CCc1ccc(-n2c(=O)c3ccccc3n(CC(=O)C(C)(C)C)c2=O)cc1	-0.05	0.57
CN(C)C1CCCCC1NS(=O)(=O)c1ccc(Cl)cc1 (configuration not stated)	-0.2	0.35
COc1ccc(-c2nc(CS(=O)CC(=O)NC3CCCC3)c(C)o2)cc1 (configuration not stated)	0	0.075
CC(C)C(=O)N=C1NC(=O)CS1	-0.05	-0.035
O=c1c(N2CCN(S(=O)(=O)c3ccc(F)cc3)CC2)coc2ccccc12	1.9	0.54
CN1C(=O)CN=C(c2ccccc2)c2cc(Cl)ccc21	·	2
O=C(Nc1cccc(O)c1)c1cccc(S(=O)(=O)Nc2cccc(O)c2)c1	0.65	·
CC12CN3CC(C)(CN(C1)C3C1C(=O)Nc3ccccc31)C2 (configuration not stated)	0.75	0.34
CCCN(Cc1cccs1)C(=O)Nc1ccc(Cl)cc1	0.35	-0.27
CC(NC(=O)Nc1cccc(C(F)(F)F)c1)c1nc2ccccc2[nH]1 (configuration not stated)	-0.8	·
CNC(=O)Cc1ccc(NC(=O)N2CCCCc3ccccc32)cc1	-1.1	0.12
O=C(NCc1ccco1)c1c(NC(=O)C2COc3ccccc3O2)sc2c1CCC2 (configuration not stated)	-0.5	0.28
CC(Sc1nnc2c(n1)[nH]c1ccccc12)C(=O)NC1CC1 (configuration not stated)	-1	·
O=C(COC(=O)c1cc2ccccc2oc1=O)c1ccc(Br)cc1	-0.8	-0.52
CC1(C)CC(=O)C2=C(C1)Nc1ccc3ccccc3c1C2c1ccco1 (configuration not stated)	1.6	80
CC(C(=O)Nc1ccc(Br)cc1)N1CCN(c2ccccc2)CC1 (configuration not stated)	-1.8	·
Cc1ccc(C(=O)Oc2ccc(C3Oc4ccccc4C4CC(c5ccc(Cl)cc5)=NN43)cc2)cc1 (configuration not stated)	·	0.43
COc1cccc(OC)c1OCCNCc1ccco1	-0.25	·
O=C1CC(c2ccccc2I)c2ccc3ccccc3c2N1 (configuration not stated)	·	-0.12
Fc1ccc(CN2CCC(N3CCc4ccccc4C3)CC2)cc1	0.9	0.86
